Six1-Eya2 blk: Six1/Eya2 interaction inhibition; AlphaScreen GST-Six1/His-Eya2 binding, biochemical; active compounds read low; control for the full effect not named in the record; activity change, % (test concentration not listed); AID 651725; actives 0.56% (n = 360,000); in the data active = activity change below about -65%; inconclusive = about -30% to -65%; inactive = above about -30%; further: on the % scale 0 is the no-effect control and ±100 the full control effect
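AlphaScreen with GST-Six1 and His-Eya2 (5X mix: 250 nM and 500 nM), glutathione donor and nickel acceptor beads; buffer 50 mM Tris pH 8.0, 300 mM NaCl, 1 mM TCEP; 1 h at 37 C in the dark.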
TRPML1 agonist: human mucolipin-1 channel agonism. Q9GZU1. TRPML1-expressing cells, Ca2+ dye fluorescence, FDSS; host cell line not named in the record; reference of the full effect not given here. activation, % (test concentration not listed). actives 0.12% (n = 410,000). AID 624414; in the data active = activation above about 50%; inconclusive = about 30% to 50%; inactive = below about 30%; further: 0% is about no effect; the text of the record puts the active cut at 80%
Target sequence (Q9GZU1 whole entry, looked up): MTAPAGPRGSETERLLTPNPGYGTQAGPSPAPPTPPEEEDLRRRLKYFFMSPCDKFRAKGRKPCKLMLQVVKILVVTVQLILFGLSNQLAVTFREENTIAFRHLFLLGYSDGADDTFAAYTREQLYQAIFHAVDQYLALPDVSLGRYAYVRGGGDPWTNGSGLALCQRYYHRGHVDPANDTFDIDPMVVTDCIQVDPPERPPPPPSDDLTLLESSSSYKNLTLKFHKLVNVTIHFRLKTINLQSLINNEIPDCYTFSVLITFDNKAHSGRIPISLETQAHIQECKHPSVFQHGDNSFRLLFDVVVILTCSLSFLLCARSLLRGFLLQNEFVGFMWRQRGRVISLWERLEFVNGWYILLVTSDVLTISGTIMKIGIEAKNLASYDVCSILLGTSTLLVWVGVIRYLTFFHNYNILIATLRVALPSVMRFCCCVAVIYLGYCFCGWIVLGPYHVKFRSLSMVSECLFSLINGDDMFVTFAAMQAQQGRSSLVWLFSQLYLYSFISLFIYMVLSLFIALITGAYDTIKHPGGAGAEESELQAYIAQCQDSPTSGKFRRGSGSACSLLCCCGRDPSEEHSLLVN
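Kinetic FDSS Ca2+ read in Tet-induced TRPML1-DL cells (ABD Ca8 dye plus quencher, 45-90 min RT loading): baseline, then compound, then 110 s agonist window; EC80 agonist 54-4 at 4uM final added afterwards for a 110 s antagonist window.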
CtBP-E1A inh: inhibitors of CtBP/E1A interaction. AID 651724. actives 0.49% (n = 340,000). AlphaScreen GST-E1A/His-CtBP binding, 1536-well; active compounds read low; control for the full effect not named in the record. activity change, % (test concentration not listed); in the data active means activity change below about -65%; inconclusive means about -30% to -65%; inactive means above about -30%; further: on the % scale 0 is the no-effect control and ±100 the full control effect
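Homogeneous bead-based format: GST-tagged E1A captured on glutathione donor beads, His-tagged CtBP on nickel acceptor beads; compounds precede bead addition by 2 h at 37 °C.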
D2 ag: human D2 receptor agonism in beta-arrestin assay | P14416 | actives 0.084% (n = 360,000) | DiscoveRx PathHunter D2 beta-arrestin, luminescence, 90 min; 100% = 57 uM dopamine signal | activation, % (test concentration not listed); in the data active = activation above about 40%; inconclusive = about 15% to 40%; inactive = below about 15%; further: compound concentration not given in the record; the text of the record calls up to 30% inactive
Target sequence (P14416 whole entry, looked up): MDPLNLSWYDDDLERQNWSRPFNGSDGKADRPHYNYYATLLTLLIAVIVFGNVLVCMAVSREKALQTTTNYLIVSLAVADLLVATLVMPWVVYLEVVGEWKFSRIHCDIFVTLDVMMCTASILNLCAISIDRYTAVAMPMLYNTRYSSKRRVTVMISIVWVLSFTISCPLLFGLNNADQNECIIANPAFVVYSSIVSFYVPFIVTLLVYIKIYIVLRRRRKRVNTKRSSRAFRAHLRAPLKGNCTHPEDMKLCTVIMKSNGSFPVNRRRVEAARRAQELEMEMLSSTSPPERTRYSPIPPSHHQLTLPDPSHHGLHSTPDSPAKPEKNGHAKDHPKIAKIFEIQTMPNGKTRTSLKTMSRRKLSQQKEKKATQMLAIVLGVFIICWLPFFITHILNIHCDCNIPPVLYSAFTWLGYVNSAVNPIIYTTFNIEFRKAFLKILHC
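Agonist mode: compounds alone added to overnight-plated D2 PathHunter cells for 90 min at 37 C, with 57 uM final dopamine (EC100) defining full response. Beta-arrestin recruitment detected by chemiluminescent reagent, read after 1 h at ambient temperature.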
D2 PAM: positive allosteric modulators of human D2 dopamine receptor; P14416; DiscoveRx D2 beta-arrestin cells, luminescence, 90 min; 100% = 57 uM dopamine signal; potentiation, % (no concentration beside the values); actives 0.23% (n = 360,000); AID 624464; active = potentiation of 50% or more; inconclusive = 30% to 50%; inactive = 30% or less;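 further: compound concentration not given in the record; tested on top of an EC20 dose of dopamine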
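D2 cells co-treated with compound plus 50 nM dopamine (EC20) for 90 min at 37 deg C to detect potentiation. Beta-arrestin recruitment was read as enzyme-fragment luminescence after 1 h at ambient temperature. Full response was set by 57 uM dopamine.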
PINK1 expr mod: changes PINK1 expression; PINK1 immunofluorescence, high-content cytometry, 24 h; Potency, µM (titrated, usually from 76.6 µM), inactives show top-dose activation (PINK1 increase), hits mostly activators; actives 0.2% (n = 410,000); AID 624263; active = well fitted activation curve with a large enough effect; inconclusive = small, poorly fitted or top-dose-only effect; inactive = flat fitted curve, though single readings scatter; cell line not stated here;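 further: potency means the concentration at half of the fitted maximal effect; % of control where 0% means no effect; nearly all actives have a fitted effect of over 65% in size; a mitochondrial uncoupler was the plate control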
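PINK1 protein, normally rapidly degraded, was detected by immunofluorescence after 24 hour compound treatment of a stable cell line. Titration data (5 concentrations) came from laser-scanning cytometry, with CCCP-treated wells as controls.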
Starred values were filed as active, the others as inactive; ? = inconclusive; . = not tested or not shown; & = joins results of further samples; [ ] = dose if it differs, or a comment. An unsorted share of the library. About 1.3% of those tested had a hit in this group.

No.	smiles	Six1-Eya2 blk	TRPML1 agonist	CtBP-E1A inh	D2 ag	D2 PAM	PINK1 expr mod
1	O=C(COC(=O)c1c2c(nc3ccccc13)CCCC2)c1cccs1	-25	2.6	-30	0.6	-6	2.2%[38.3 µM]
2	Cc1ccc(S(=O)(=O)Cn2nnnc2C(c2ccc(F)cc2)N2CCCCC2)cc1 (stereo not drawn)	4	0.9	10	-0.8	-21	3.9%[38.3 µM]
3	C#CC(C)(C)NC(=O)CSc1nc2c(c(=O)n(C)c(=O)n2C)n1CCCC	-3	0.2	1	-2.0	7	2.8%
4	CCC(CC)C(=O)Nc1cc(=O)n(C)c(=O)n1C	-2	-0.7	0	2.4	-1	0.9%
5	CCn1c(CNc2ccc(F)cc2)nnc1SCCN1CCCCC1	-1	-0.1	5	-1.6	-36	-1.8%
6	COc1ccc(NC(=O)CCNS(=O)(=O)c2ccccc2F)cc1S(N)(=O)=O	1	1.5	3	0.3	-1	3.0%
7	CCOC(=O)c1cn[nH]c1NC(=S)Nc1ccc(OC)cc1	-8	-0.4	-7	6.6	-3	1.4%
8	Cc1ccc(NC(=O)c2cc(-c3cccs3)on2)cc1	11	0.3	2	0.2	-14	1.5%
9	O=C(NCCS(=O)(=O)N1CCCCCC1)c1ccc(F)cc1	6	0.0	3	-5.2	-3	2.7%
10	CCOc1nc(Nc2ccc(F)cc2)nc(N2CCN(c3ccc(OC)cc3)CC2)n1	-27	0.8	-28	0.9	1	6.5%
11	CCOC(=O)CNC(=O)CSc1cc(C)nc2ccc(OC)cc12	-7	0.2	-10	-3.9	-3	-1.2%
12	CNc1nc(SCc2ccccc2)nc(N2CCOCC2)n1	-1	-0.6	2	-2.4	-15	1.1%[38.3 µM]
13	Cc1nc(C)n(C(C)CNS(=O)(=O)c2ccc(Cl)cc2)n1 (stereo not drawn)	10	-0.4	3	5.5	-3	0.2%
14	COc1cc(-c2nc(S(=O)(=O)c3ccc(C)cc3)c(N3CCOCC3)o2)cc(OC)c1OC	5	1.3	-8	-0.3	4	7.6%
15	COCCCn1c(SCC(=O)N2CCc3ccccc32)nnc1-c1ccco1	2	1.7	2	0.7	16	2.1%
16	Cc1cccc(NC(=O)CCCn2c(=S)[nH]c3ccccc3c2=O)c1	-6	-0.4	4	4.7	-8	1.0%
17	Cn1c(=O)c2c(ncn2CCOC(=O)C(C)(C)Oc2ccc(Cl)cc2)n(C)c1=O	1	-0.2	-3	-6.4	-6	3.1%
18	CCOc1ccc(CCNC(=O)CS(=O)(=O)Cc2nc(-c3ccc(OC)cc3)oc2C)cc1	-13	0.3&-0.6	0	-5.6	-23	3.8%&2.8%
19	CCOc1ccccc1OCCCCCc1c(C)n[nH]c1C	-4	-0.1	-8	-1.6	7	?
20	COc1ccccc1-c1cc2c(c3c1ccn3C)C1CCC2O1 (stereo not drawn)	-7	-0.5	-10	-3.7	-4	2.5%
21	Cc1ccc(NC(=O)c2ccc(OC(=O)c3cc4ccccc4o3)cc2)cc1	-1	-1.2	4	0.3	-1	-1.4%
22	COc1ccc(C)cc1S(=O)(=O)N1CCCC(C(=O)N2CCN(c3ccccc3F)CC2)C1 (stereo not drawn)	-7	1.7	9	-4.4	-24	3.0%
23	CCn1c(=O)cc(N2CCN(C(=O)c3ccco3)CC2)[nH]c1=O	-1	.	5	-0.2	-3	0.2%
24	O=C(OC1CCOC1=O)c1cccc(S(=O)(=O)Nc2cccc(Cl)c2)c1 (stereo not drawn)	19	-0.3	7	2.0	-1	1.4%
25	O=C(C1=C[C@@H](C2CCCCC2)C[C@@H](OCc2ccc(CO)cc2)O1)N1CCN(Cc2ccc3c(c2)OCO3)CC1	-21	1.0	-10	2.5	-4	-0.2%
26	CC(C)CN(C(=O)CN(C)S(=O)(=O)c1ccc(Cl)cc1)C1CCS(=O)(=O)C1 (stereo not drawn)	-1	1.0	2	-3.6	-12	?
27	O=C(C1CCN(S(=O)(=O)c2cc(Cl)ccc2Cl)CC1)N1CCOCC1	4	0.6	-7	-4.2	-2	1.6%
28	CC(C)CC1NC(=O)N(CC(=O)Nc2ccc(OCc3ccccc3)cc2)C1=O (stereo not drawn)	-3	2.0	9	-3.4	-14	-0.7%
29	CCn1nnnc1SCC(=O)NCc1cccs1	4	-0.4	14	-1.6	4	0.0%
30	CC12CCC(=O)C=C1C(F)CC1C2C(O)CC2(C)C1CCC2(O)C(=O)CO (stereo not drawn)	-1	0.0	0	-0.6	-4	1.9%
31	O=C(CSCc1ccco1)N1CCc2ccccc21	-4	0.9	-1	-3.6	-7	2.5%
32	CC(C)NC(=O)c1ccc(CN2CCc3ccccc3C2)cc1	2	.	.	-0.9	-40	-0.5%
33	CC(=O)c1c(O)c2ccccc2n(C(C)C)c1=O	4	0.7	0	0.3	-1	-1.0%
34	COc1ccc(CCN(Cc2nc3ccccc3c(=O)[nH]2)C(=O)C2CC2)cc1	18	-0.1	-20	0.3	2	0.0%
35	Cn1cc([N+](=O)[O-])c(C(=O)N2CCN(Cc3ccc4c(c3)OCO4)CC2)n1	-6	0.1	-15	-6.6	-15	0.6%
36	CCOC(=O)/C(C#N)=C1/C=C(C)NC(c2ccccc2O)=N1	-22	2.6	-15	3.5	4	?
37	OCCNCCO	5	.	2	-3.4	-26	-0.4%
38	Clc1ccc(-c2nnc(-c3cccnc3)o2)cc1	3	-0.1	2	-1.9	-7	0.5%
39	CC(C)CCOP(=O)(c1ccc(N(C)C)cc1)C(O)c1ccccc1F (stereo not drawn)	-4	0.2	-3	-1.8	-6	0.7%[38.3 µM]
40	O=C1CCCC2=C1Sc1ccccc1N2	-3	0.2	-8	1.3	18	-0.3%
41	CCN(CC(=O)NC(=O)Nc1ccccc1F)Cc1ccccc1	18	1.4	7	3.7	-4	2.0%
42	Cc1ccc2nc(-c3ccncc3)c(NC3CCCCC3)n2c1	-24	0.0	6	-1.1	-3	0.8%
43	COc1ccc([N+](=O)[O-])cc1NCc1cccnc1	-1	-0.2	0	-2.2	-10	3.4%
44	C[C@@H]1ON(C)[C@H]2C[C@H]3c4cc(N5CCN(C)CC5)ccc4CCN3C(=O)[C@@H]12	3	-0.9	1	0.5	.	-0.6%
45	CCOC(=O)C1=CN(Cc2cccc(F)c2)S(=O)(=O)NC1c1ccccc1 (stereo not drawn)	-1	0.0	6	1.3	.	0.2%
46	O=C(CNC(=O)c1ccco1)NCC(=O)OCc1ccc(Cl)cc1	5	3.2	3	-1.1	-17	-1.4%
47	COC(=O)Cc1c(C)c2ccc(OCC(=O)NCc3ccc4c(c3)OCO4)cc2oc1=O	-2	0.0	-6	-0.1	24	8.4%
48	CCN1CCN(C(c2cccs2)C(C)NC(=O)c2ccccc2OC)CC1 (stereo not drawn)	5	-0.1	1	-5.7	-13	-0.7%
49	COc1ccccc1NC(=O)C1CCN(S(C)(=O)=O)CC1	5	0.4	-9	-5.2	-2	-0.3%
50	Cc1nc(C)n(CC(O)COc2ccc3ccccc3c2)n1 (stereo not drawn)	2	-0.2	4	-2.4	0	3.4%[38.3 µM]
51	CC1(C)CC(C(=O)Nc2ccccc2)C(=O)O1 (stereo not drawn)	2	1.0	-12	-5.7	-4	-0.2%
52	O=C(Nc1ccc(F)cc1F)c1cccn1-c1ncc(C(F)(F)F)cc1Cl	0	0.5	8	3.2	-7	?
53	CC1CN(C(=S)Nc2ccccc2)C(C)CN1C=O (stereo not drawn)	-1	-0.2	3	-2.8	-3	6.2%
54	COc1cccc(NC(=O)CN(C)C(=O)c2sc3cc(Cl)ccc3c2Cl)c1	-8	1.6	-6	-5.8	-26	-0.2%
55	COc1cc(C(=O)Nc2ccc(C)cn2)c([N+](=O)[O-])cc1OC	11	-0.9	-8	-3.8	-11	-0.4%
56	NC(=O)CN1C(=O)C(O)(CC(=O)/C=C\c2ccc3c(c2)OCO3)c2ccccc21 (stereo not drawn)	6	-0.3	-23	0.5	-6	10%
57	COc1ccc(CCN2C(=O)CC(Cc3ccccc3)C2=O)cc1OC (stereo not drawn)	13	0.2	7	3.8	2	1.8%
58	Nc1nc(=S)[nH]c2c1C1(CCCC1)Cc1ccccc1-2	-3	0.0	-2	-3.0	18	-0.4%
59	Cc1cc2cc(C#N)c(N3CCOCC3)nc2cc1Cl	18	2.5	.	10	-5	-1.0%
60	COc1ccc(C(CCN2CCCCC2)c2c(O)cc(OC)cc2OC)cc1 (stereo not drawn)	-7	-0.1&0.1	-5	1.3	-23	0.9%

New compounds follow.
No.	smiles	Six1-Eya2 blk	TRPML1 agonist	CtBP-E1A inh	D2 ag	D2 PAM	PINK1 expr mod
61	COc1ccc2c(c1)C(=O)N(Cc1ccccc1)C(=O)C2(C)C	14	-0.1	15	-1.4	-4	1.6%
62	CN(C)CCNC(=O)CNC(=S)N(CCCN1CCOCC1)Cc1cccs1	-2	-0.3	-2	-3.1	-6	1.7%
63	CCN(CC)CCSc1nc2c([nH]1)c(=S)n(C)c(=O)n2C	-3	0.8	0	-3.4	4	-0.1%
64	O=C(CCN1C(=O)/C(=C/c2ccc3c(c2)OCO3)SC1=S)Nc1ccccc1	3	-0.3	1	-0.3	-8	?
65	O=C(CCc1ccccc1)Nc1cc2c(cc1C(=O)O)OCCCO2	2	-0.4	-2	-3.6	-15	0.4%
66	COC(CNC(=O)c1ccc(CS(=O)(=O)c2ccccc2)o1)OC	12	0.7	-2	3.1	-1	-2.2%
67	CC/C(=N\NC(=O)c1nnn(-c2nonc2N)c1-c1ccc2c(c1)OCO2)c1ccccc1	0	-0.2	5	0.3	7	-2.1%

Molecules listed so far with a Cl atom (10):
No.	smiles	Six1-Eya2 blk	TRPML1 agonist	CtBP-E1A inh	D2 ag	D2 PAM	PINK1 expr mod
13	Cc1nc(C)n(C(C)CNS(=O)(=O)c2ccc(Cl)cc2)n1 (stereo not drawn)	10	-0.4	3	5.5	-3	0.2%
17	Cn1c(=O)c2c(ncn2CCOC(=O)C(C)(C)Oc2ccc(Cl)cc2)n(C)c1=O	1	-0.2	-3	-6.4	-6	3.1%
24	O=C(OC1CCOC1=O)c1cccc(S(=O)(=O)Nc2cccc(Cl)c2)c1 (stereo not drawn)	19	-0.3	7	2.0	-1	1.4%
26	CC(C)CN(C(=O)CN(C)S(=O)(=O)c1ccc(Cl)cc1)C1CCS(=O)(=O)C1 (stereo not drawn)	-1	1.0	2	-3.6	-12	?
27	O=C(C1CCN(S(=O)(=O)c2cc(Cl)ccc2Cl)CC1)N1CCOCC1	4	0.6	-7	-4.2	-2	1.6%
38	Clc1ccc(-c2nnc(-c3cccnc3)o2)cc1	3	-0.1	2	-1.9	-7	0.5%
46	O=C(CNC(=O)c1ccco1)NCC(=O)OCc1ccc(Cl)cc1	5	3.2	3	-1.1	-17	-1.4%
52	O=C(Nc1ccc(F)cc1F)c1cccn1-c1ncc(C(F)(F)F)cc1Cl	0	0.5	8	3.2	-7	?
54	COc1cccc(NC(=O)CN(C)C(=O)c2sc3cc(Cl)ccc3c2Cl)c1	-8	1.6	-6	-5.8	-26	-0.2%
59	Cc1cc2cc(C#N)c(N3CCOCC3)nc2cc1Cl	18	2.5	.	10	-5	-1.0%
